# Source: PubChem (several laboratories)
# HSV augment: HSV replication enhancement; HSV replication augmentation in cells, fold increase; maximum fold increase; 0.005% of 220,000 active; AID 1956;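 active means peak rise of 1.5-fold or more in the series; inconclusive means self-fluorescent or not available for retest; tested in PC3 cells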;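 further: first round at 10 µM; read as green reporter fluorescence; hits show the peak of a series up to 25 µM; 1 = signal of infected wells without compound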
# RGS16-Gao: regulators of human RGS16-Galphao interaction; O15492+P09471; bead-based flow cytometry RGS16-Galphao binding, fluorescence; actives lie on both sides; binding response (% of control), % at 10 µM; 0.38% of 220,000 active;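 active means below 25% or above 175%, edge rows of some plates excepted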;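 further: Galphao activated by GDP with aluminum fluoride before binding; 100% = wells without compound and 0% = beads without RGS; some results beyond the cut were filed as inactive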
# Target sequence (O15492 whole entry, looked up): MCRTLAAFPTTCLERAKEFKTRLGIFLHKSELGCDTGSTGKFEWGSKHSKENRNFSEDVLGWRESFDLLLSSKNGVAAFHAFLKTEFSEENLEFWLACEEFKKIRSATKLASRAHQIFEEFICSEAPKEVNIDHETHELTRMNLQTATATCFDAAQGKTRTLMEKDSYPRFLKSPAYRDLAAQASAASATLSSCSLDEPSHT
# Target sequence (P09471 whole entry, looked up): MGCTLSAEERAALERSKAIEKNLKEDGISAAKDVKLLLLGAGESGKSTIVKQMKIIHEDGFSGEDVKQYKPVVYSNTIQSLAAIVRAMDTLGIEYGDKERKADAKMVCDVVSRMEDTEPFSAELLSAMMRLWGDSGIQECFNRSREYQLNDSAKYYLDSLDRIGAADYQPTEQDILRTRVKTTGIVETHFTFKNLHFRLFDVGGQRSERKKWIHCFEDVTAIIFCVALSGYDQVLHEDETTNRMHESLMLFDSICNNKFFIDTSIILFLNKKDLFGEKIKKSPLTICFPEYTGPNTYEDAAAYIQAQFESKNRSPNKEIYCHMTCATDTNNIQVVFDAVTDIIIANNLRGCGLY
# Insulin prom inh: TRM-6 insulin promoter activity inhibition. TRM-6 cells (human fetal islet line), insulin promoter-eGFP reporter, imaging; reporter expression induced with tamoxifen. inhibition, % at 2 µM. AID 1273. 0.9% of 130,000 active;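 active means inhibition above the mean plus 3 SD, with well images judged a real hit on visual review, cut at about 60% in these data, passing the limit was not always enough; inconclusive means inhibition over the cutoff but images rejected on review; inactive means inhibition not above the cutoff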
# GALR2 ag: agonists of human galanin receptor 2 (GALR2); O43603; GALR2-expressing cells, agonist activation read-out; activation, %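 (tested at 5 µM)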; 0.48% of 140,000 active; AID 803;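 active means above mean plus 3 SD of all compounds, about 5% in these data, not always enough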;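 further: 0% = vehicle buffer wells and 100% = reference agonist at full effect; tested in CHO reporter cells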
# PKD1 kinase inh: PKD1 (human) kinase inhibition. Q15139. PKD1 kinase fluorescence polarization assay. inhibition, %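 (about 10 µM by stock and volumes)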. 0.056% of 200,000 active;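 active means inhibition of 50% or more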;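 further: controls were vehicle for no effect and a reference inhibitor for full effect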
# Insulin prom inh cell count: second read-out of Insulin prom inh, no call of its own (marks repeat the call); normalized cell count, %; measured here: cell count, toxicity; reference of the scale not given here;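 cells exposed to compound for 48 h; stained nuclei by imaging scaled within each plate; lower means fewer cells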
# HSV augment primary fold: second read-out of HSV augment, no call of its own (marks repeat the call); fold increase; compound at 10 µM; measured here: primary screen fold increase 10 uM; tested in PC3 cells;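 GFP signal in the first replicate; 1 = infected wells without compound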
# * marks the source's active call; other numbers are inactive results; i = inactive; ? = inconclusive; · = not tested or not shown.
# Below each SMILES – PKD1 kinase inh | RGS16-Gao | HSV augment | HSV augment primary fold | Insulin prom inh | Insulin prom inh cell count | GALR2 ag
COc1ccc(C(=O)OCC(=O)NCc2ccco2)cc1OC
  -7 | 97 | i | 1 | 29 | 123 | -0.3
O=C(Nc1ccccc1)c1cc(N2CCOCC2)nc2ccccc12
  0 | 97 | i | 0.98 | -33 | 96 | -1.5
Cc1cc(Cl)ccc1OC(C)C(=O)NCCCn1ccnc1 (stereo not given)
  -4 | 103 | i | 0.95 | -94 | 108 | ·
COc1ccc(N2CCN(C(=O)c3ccc(NS(=O)(=O)c4ccc(F)cc4)cc3)CC2)cc1
  3 | 94 | i | 0.86 | 29 | 94 | -1.5
CCOC(=O)c1[nH]c2ccccc2c1NC(=O)CC(C)(C)C
  -1 | 98 | i | 0.74 | · | · | -1.5
Cc1cccn2cc(CNS(=O)(=O)c3cccc(F)c3)nc12
  -21 | 101 | i | 0.99 | · | · | -1.6
Cc1nc2ccccc2nc1SCC(=O)c1ccccc1
  0 | 131 | i | 1.1 | 6 | 65 | -0.8
CC(=O)N/N=C/c1ccc(OCCOc2ccc(Br)cc2)cc1
  -10 | 155 | i | 1.2 | 14 | 92 | -0.8
CN=C1SC(C(=O)Nc2ccccc2Cl)CC(=O)N1c1ccc(OC(F)(F)Cl)cc1 (stereo not given)
  6 | 89 | i | 0.92 | · | · | ·
N#CCSc1ncnc2sc3c(c12)CCC3
  -6 | 98 | i | 0.97 | · | · | 0.5
CC1(C)CC2CC(C)(CN2C(=O)COC(=O)c2n[nH]c(=O)c3ccccc23)C1 (stereo not given)
  -5 | 95 | i | 0.93 | -7 | 93 | -3.4
Cc1ccc(N=C2NC(=O)/C(=C\c3ccsc3)S2)c(C)c1
  -4 | 103 | i | 0.79 | 14 | 85 | -0.5
Cc1ccccc1Nc1cccc2nonc12
  1 | 104 | ? | · | i | 82 | -2.8
O=C(Nc1ccc(Cl)c(Cl)c1)N(CCCN1CCOCC1)Cc1cccs1
  10 | 87 | i | 0.72 | · | · | -1.4
CN(C)S(=O)(=O)n1cnc(-c2ccccc2)c1-c1ccccc1
  -3 | 96 | i | 1.1 | -28 | 101 | -1.3
Nc1nnnn1CC(=O)N/N=C/c1cc([N+](=O)[O-])ccc1O
  -4 | 99 | i | 0.66 | · | · | ·
COc1ccc(/C(=C\Nc2ccc(C)c(C)c2)C(C)=O)cc1OC
  -2 | 96 | i | 1 | · | · | ·
CCCCOc1ccc(NC(=S)Nc2cc(C)nc(SCCCC)n2)cc1
  1 | 109 | i | 0.89 | · | · | -1.1
COc1ccccc1NC(=O)c1ccc(Br)o1
  4 | 107 | · | · | 62 | 133 | -2.6
COc1cc2c(cc1NC(=S)Nc1cccc(C)c1)oc1ccccc12
  -4 | 100 | i | 0.83 | -5 | 101 | -0.3
CN1CCN(c2ncnc3c2c(-c2ccccc2)cn3-c2ccc(F)cc2)CC1
  0 | 156 | i | 0.95 | 25 | 88 | ·
CCCCNC(=S)N1CCN(c2ccc(C(C)=O)cc2)CC1
  · | 94 | i | 0.84 | · | · | ·
CCC(=O)NC(=S)Nc1ccc(N2CCN(C(=O)c3ccc(Cl)cc3)CC2)cc1
  0 | 102 | i | 0.94 | · | · | ·
C/C(CC(=O)Nc1ccc2ccccc2c1)=N\NC(=O)c1cnccn1
  -6 | 99 | i | 0.92 | 10 | 110 | -0.1
Cc1cc(C)nc(N/N=C/c2ccccc2OCc2ccc([N+](=O)[O-])cc2)n1
  -10 | 64 | i | 1 | 0 | 59 | -0.5
Cc1ccc(Cl)cc1Nc1nc(-c2sc(NC(=O)c3ccco3)nc2C)cs1
  -9 | 102 | i | 0.76 | · | · | -1.6
Cn1cccc1C(=O)C(=O)Nc1ccccc1C(F)(F)F
  4 | 99 | i | 0.91 | 0 | 112 | ·
O=C(NC(=S)Nc1ccc(CN2CCOCC2)cc1)c1ccc(-c2ccc(Cl)cc2)o1
  · | 114 | i | 0.94 | · | · | ·
COc1ccccc1NC(=O)c1cn(C)c(=O)c2cc(OC)c(OC)cc12
  -1 | 105 | i | 1 | · | · | -2.6
CN(Cc1cc(=O)n2ccsc2n1)Cc1nc2ccccc2c(=O)[nH]1
  -1 | 99 | i | 0.77 | · | · | ·

# Quoted from the listing.
# In PKD1 kinase inh, COc1ccc(N2CCN(C(=O)c3ccc(NS(=O)(=O)c4ccc(F)cc4)cc3)CC2)cc1 has the entry 3
# In GALR2 ag, CCOC(=O)c1[nH]c2ccccc2c1NC(=O)CC(C)(C)C has the entry -1.5
# In Insulin prom inh, CC1(C)CC2CC(C)(CN2C(=O)COC(=O)c2n[nH]c(=O)c3ccccc23)C1 (stereo not given) has the entry -7
# In Insulin prom inh cell count, CN(C)S(=O)(=O)n1cnc(-c2ccccc2)c1-c1ccccc1 has the entry 101
# In PKD1 kinase inh, Cc1nc2ccccc2nc1SCC(=O)c1ccccc1 has the entry 0
# In GALR2 ag, COc1ccccc1NC(=O)c1cn(C)c(=O)c2cc(OC)c(OC)cc12 has the entry -2.6
# In HSV augment primary fold, COc1ccc(/C(=C\Nc2ccc(C)c(C)c2)C(C)=O)cc1OC has the entry 1

# A portion from the list above, for reference:
# Below each SMILES – PKD1 kinase inh | RGS16-Gao | HSV augment | HSV augment primary fold | Insulin prom inh | Insulin prom inh cell count | GALR2 ag
COc1ccc(C(=O)OCC(=O)NCc2ccco2)cc1OC
  -7 | 97 | i | 1 | 29 | 123 | -0.3
O=C(Nc1ccccc1)c1cc(N2CCOCC2)nc2ccccc12
  0 | 97 | i | 0.98 | -33 | 96 | -1.5

# Other records
# Below each SMILES – PKD1 kinase inh | RGS16-Gao | HSV augment | HSV augment primary fold | Insulin prom inh | Insulin prom inh cell count | GALR2 ag
CN(C)S(=O)(=O)c1ccc(Cl)c(C(=O)OCC(=O)NC(=O)c2cccn2C)c1
  -16 | 105 | i | 0.91 | 50 | 100 | -1.1
COc1cc(/C=N/N(C)c2ccccc2)ccc1O
  1 | 101 | i | 0.97 | 31 | 143 | -2.1
Cc1ccc(-c2csc(NC(=S)NC(=O)c3ccco3)n2)cc1
  6 | 107 | i | 0.97 | 29 | 89 | 0.0
CCc1nn(-c2ccccc2)c(N)c1-c1ccc(OC)c(OC)c1
  5 | 75 | i | 0.86 | 48 | 191 | -0.9
O=C(CSc1nnc(CNC(=O)c2c(F)cccc2Cl)o1)Nc1ccc2c(c1)OCO2
  6 | 98 | i | 0.94 | · | · | ·
O=C1C=C(c2ccccc2)OC(c2ccccc2)O1 (stereo not given)
  -2 | 105 | i | 0.92 | -7 | 62 | ·
O=C(Nc1ccc(Cl)cc1C(F)(F)F)c1ccccc1
  1 | 103 | i | 0.86 | · | · | -0.5
CC(C)Cc1ccc(C(C)C(=N)N)cc1 (stereo not given)
  · | 109 | i | 0.92 | · | · | ·
COc1cc2c(C(=O)N3CCN(C)CC3)c(C)n(-c3ccccc3)c2cc1Br
  -1 | 100 | i | 0.85 | 0 | 32 | -2.0
CC(=O)c1c(C(C)=O)c(C)n(-c2nc(-c3cccs3)c(C)s2)c1C
  -13 | 102 | i | 0.95 | -30 | 170 | -1.7

# Some entries already given, showing only GALR2 ag and PKD1 kinase inh:
SMILES | GALR2 ag | PKD1 kinase inh
Cc1ccc(-c2csc(NC(=S)NC(=O)c3ccco3)n2)cc1 | 0.0 | 6
CCc1nn(-c2ccccc2)c(N)c1-c1ccc(OC)c(OC)c1 | -0.9 | 5
O=C(CSc1nnc(CNC(=O)c2c(F)cccc2Cl)o1)Nc1ccc2c(c1)OCO2 | · | 6
O=C1C=C(c2ccccc2)OC(c2ccccc2)O1 (stereo not given) | · | -2
O=C(Nc1ccc(Cl)cc1C(F)(F)F)c1ccccc1 | -0.5 | 1
